Ecoli rRNA inh – inhibitors of bacterial rRNA selective over humanized ribosomes. AID 720706. E. coli WT GFP vs humanized-ribosome RFP mutants, fluorescence, 24 h; stronger effect = lower value; DMSO median 0, no signal -100. 1.6% of 350,000 active. GFP signal change (wild-type ribosome), % (no concentration beside the values);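 active = significant combined selectivity score with lowered wild-type GFP, culture density cut under 30%, mutant RFP and density less affected; inactive = any of these conditions unmet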; note: one replicate is shown; some compounds called inactive have numbers as strong as hits
FGF22 binding – shifts melting point of recombinant human FGF22 | recombinant FGF22 thermal shift, SYPRO orange fluorescence; percent of sucrose octasulfate shift, DMSO zero | calls only at 9.99 µM | AID 651658 | 1.5% of 340,000 active | Q9HCT0;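 active = melting point raised past a set limit in the mean and every replicate; three in four hits are not shown here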
Target sequence (Q9HCT0 whole entry, looked up): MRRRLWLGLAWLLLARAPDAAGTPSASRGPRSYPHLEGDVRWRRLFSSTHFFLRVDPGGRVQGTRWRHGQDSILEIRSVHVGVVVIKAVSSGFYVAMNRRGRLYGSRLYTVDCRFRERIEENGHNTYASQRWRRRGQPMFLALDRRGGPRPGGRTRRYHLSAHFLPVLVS
UCH37 inh – human UCH37 deubiquitinating enzyme inhibition | purified proteasome/UCH37, Ub-AMC cleavage fluorescence | 0.33% of 330,000 active | Q9Y5K5 | inhibition, % (test concentration not listed);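 active = mean of two replicates above 20%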;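 note: 0% = compound-free wells with enzyme and 100% = wells lacking proteasome; stock transfer was 100 nL into about 20 µL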
Target sequence (Q9Y5K5 whole entry, looked up): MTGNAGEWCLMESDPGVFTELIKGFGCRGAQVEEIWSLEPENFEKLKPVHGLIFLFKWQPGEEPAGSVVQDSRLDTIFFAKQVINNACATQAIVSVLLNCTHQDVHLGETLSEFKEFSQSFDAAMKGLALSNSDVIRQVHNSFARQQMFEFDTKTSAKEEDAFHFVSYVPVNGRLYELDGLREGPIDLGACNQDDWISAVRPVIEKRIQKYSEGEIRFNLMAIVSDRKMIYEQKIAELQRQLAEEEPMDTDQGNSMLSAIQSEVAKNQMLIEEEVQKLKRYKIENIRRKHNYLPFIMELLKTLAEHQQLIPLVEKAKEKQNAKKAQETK
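Material: Human UCH37 enzyme supplied as purified proteasome complex | Schedule: 30 min preincubation with enzyme, 25 min cleavage at room temperature | Detection: AMC fluorescence 355/460 nm | Measure: % inhibition of Ub-AMC cleavage fluorescence | Controls: Wells without proteasome as full block, compound-free enzyme plus substrate as uninhibited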
E coli growth – inhibitors of Escherichia coli growth; 0.21% of 330,000 active; OD600 absorbance (concentration not given with the values); OD600, 23 h; stronger effect = lower value;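 active = OD600 absorbance below the run mean of sample wells minus 3.6 SD, in any replicate, cut at about 0.56 in these data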;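 note: stock transfer was 300 nL into about 60 µL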
MLL AF4-AF9 inh – inhibitors of human MLL-AF4/AF9 interaction; AlphaScreen, biotin-AF4 peptide binding to FLAG-AF9; 0.47% of 350,000 active; inhibition, % at 10 µM; P42568; AID 651704;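 active = every replicate reaching a set inhibition limit, whatever the replicate mean, cut at about 25% in these data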;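 note: 0% = plate neutral control median and 100% = total signal loss; the record names both 10 and 1 µM as test concentration; the first replicate is given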
Target sequence (P42568 whole entry, looked up): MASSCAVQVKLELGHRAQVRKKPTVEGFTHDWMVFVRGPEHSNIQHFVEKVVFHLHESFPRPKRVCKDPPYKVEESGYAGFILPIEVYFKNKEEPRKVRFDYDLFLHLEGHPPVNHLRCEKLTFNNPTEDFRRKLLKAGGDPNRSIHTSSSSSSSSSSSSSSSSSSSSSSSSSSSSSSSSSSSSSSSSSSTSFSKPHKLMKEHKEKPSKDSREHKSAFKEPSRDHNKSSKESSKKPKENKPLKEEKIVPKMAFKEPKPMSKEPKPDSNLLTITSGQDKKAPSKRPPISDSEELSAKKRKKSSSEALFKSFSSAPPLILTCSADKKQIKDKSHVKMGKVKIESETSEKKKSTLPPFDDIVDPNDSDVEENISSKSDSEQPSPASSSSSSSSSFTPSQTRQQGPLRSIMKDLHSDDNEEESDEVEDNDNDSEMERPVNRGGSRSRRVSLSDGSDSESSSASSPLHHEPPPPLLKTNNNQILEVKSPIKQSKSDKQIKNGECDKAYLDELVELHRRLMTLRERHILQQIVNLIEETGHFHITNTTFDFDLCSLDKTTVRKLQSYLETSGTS
A1 inh – inhibitors of the anti-apoptotic protein A1, read as caspase activation; 0.066% of 330,000 active; AID 2462; caspase activation, % (test concentration not listed); MEF A1-2A-BIM cells, Caspase-Glo 3/7 luminescence, 3 h; percent of clofoctol response, vehicle zero;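 active = over half of replicate activation scores above 10%, or exactly half above 10 with the replicate mean above 10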;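 note: wells of about 30 µL received 50 nL stock; many hits fall short of the cut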
Beta cell apopt – beta cell apoptosis inhibition; INS-1E cytokine-induced death, ATP luminescence, 48 h; percent of positive-control rescue, neutral wells zero; protection from apoptosis, % (test concentration not listed); 0.8% of 300,000 active;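 active = all replicates at 75% or more, or half of them and the mean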;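 note: 0% = cytokine-treated negative control wells and 100% = positive control rescue; higher means more ATP so stronger rescue from cytokine killing; wells of about 40 µL received 100 nL stock; the first replicate is given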
T cruzi repl – blocks replication of Trypanosoma cruzi | inhibition, % (no concentration beside the values) | 1.4% of 300,000 active | T. cruzi beta-gal in NIH3T3, luminescence, 90 h;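 active = mean inhibition across valid replicates above about 55%, limit read from the data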;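 note: signal also drops with host cell toxicity which is not excluded here; 0% = plate median of DMSO wells and 100% = zero luminescence signal; higher percent means less beta-gal luminescence so fewer parasites; stock transfer was 50 nL into about 50 µL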
Ecoli rRNA inh OD600 – second read-out of Ecoli rRNA inh, no call of its own (marks repeat the call); OD600 change, %; measured here: OD600 growth;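 optical density of the mix in the first replicate; 0 = DMSO median and -100 = no signal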
Ecoli rRNA inh RFP – further read-out of Ecoli rRNA inh, marked with its call; RFP signal change, %; measured here: RFP humanized mutant strains;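 first replicate; 0 = DMSO median and -100 = no signal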
* hit, by the source's call; i = inactive; / = no result given; + = active, no number. These rows are one share of the data (hit frequency here may not be typical).

SMILES	Ecoli rRNA inh	Ecoli rRNA inh OD600	Ecoli rRNA inh RFP	FGF22 binding	UCH37 inh	E coli growth	MLL AF4-AF9 inh	A1 inh	Beta cell apopt	T cruzi repl
Cc1ccc2cc(CN(CCN(C)C)C(=O)Nc3ccc(Cl)cc3)c(=O)[nH]c2c1	-54	-80	-14	i	6.6	0.58	6.8	0.0	1	14
Cc1nc2c3ccccc3nc(NNC(=O)CCC(=O)NC3CCCC3)n2n1	6	13	1.0	i	3.5	0.7	-2.3	0.5	0	-10
C#CCOc1ccc(Br)cc1C(c1c(C)[nH][nH]c1=O)c1c(C)[nH][nH]c1=O	-1	3	-1.4	i	-1.2	0.71	2.4	-0.1	-6	-6
O=c1[nH]c(SCc2ccc(Cl)cc2)nc2[nH]ncc12	-11	-14	-2.0	i	4.3	0.75	-1.3	-0.8	2	-13
C/C(=N/NC(=S)Nc1cccc(C)c1)c1cccc([N+](=O)[O-])c1	-13	-13	-0.1	i	/	/	3.3	0.1	15	56*
Cc1ccc(S(=O)(=O)NCCC(=O)NCc2ccc(Cl)cc2)cc1C	11	11	3.8	i	-0.1	0.7	-1.3	-0.1	0	/
CC(=O)Nc1ccc(S(=O)(=O)N(C)c2ccc(OCCOc3ccccc3F)cc2)cc1	-3	2	-2.7	i	3.9	0.71	2.5	-0.9	14	/
CC1CCC(NC(=O)C2COc3ccccc3O2)CC1 (centres undefined)	4	12	-2.3	i	-2.4	0.64	-0.4	0.4	0	0
O=C(CCN1C(=O)C2C3C=CC(C3)C2C1=O)N1CCN(c2ccccn2)CC1 (centres undefined)	/	/	/	/	-2.6	0.67	/	-0.5	-6	-1
O=C(NNC(=O)C1CC2CCC1C2)c1ccccc1 (centres undefined)	/	/	/	/	-5.0	0.71	/	0.6	-11	-4
Nc1[nH]nc2nc(N3CCCC3)nc(-c3ccccc3)c12	/	/	/	/	4.3	0.74	/	0.6	-1	-8
COc1ccc(CCNC(=S)NNC(=O)c2c(Br)c(C)nn2C)cc1OC	-1	2	-0.8	i	-4.4	0.7	-1.3	-0.1	-2	-18
COc1ccc(CNc2ncnc3sccc23)cc1OC	-3	-1	-0.5	i	1.3	0.68	-2.6	0.4	54	-9
O=C(COC(=O)C1CCC1)Nc1cccc(S(=O)(=O)N2CCOCC2)c1	6	6	-1.9	i	-0.4	0.62	1.4	-0.2	0	-9
Cc1cc(S(=O)(=O)N2CCCOC2CNC(=O)C(=O)NCc2ccco2)ccc1F (centres undefined)	14	10	1.4	i	2.0	0.72	-0.8	3.0	-3	-19

Molecules above with an NH in an aromatic ring, in the order listed:
SMILES	Ecoli rRNA inh	Ecoli rRNA inh OD600	Ecoli rRNA inh RFP	FGF22 binding	UCH37 inh	E coli growth	MLL AF4-AF9 inh	A1 inh	Beta cell apopt	T cruzi repl
Cc1ccc2cc(CN(CCN(C)C)C(=O)Nc3ccc(Cl)cc3)c(=O)[nH]c2c1	-54	-80	-14	i	6.6	0.58	6.8	0.0	1	14
C#CCOc1ccc(Br)cc1C(c1c(C)[nH][nH]c1=O)c1c(C)[nH][nH]c1=O	-1	3	-1.4	i	-1.2	0.71	2.4	-0.1	-6	-6
O=c1[nH]c(SCc2ccc(Cl)cc2)nc2[nH]ncc12	-11	-14	-2.0	i	4.3	0.75	-1.3	-0.8	2	-13
Nc1[nH]nc2nc(N3CCCC3)nc(-c3ccccc3)c12	/	/	/	/	4.3	0.74	/	0.6	-1	-8

Further structures
SMILES	Ecoli rRNA inh	Ecoli rRNA inh OD600	Ecoli rRNA inh RFP	FGF22 binding	UCH37 inh	E coli growth	MLL AF4-AF9 inh	A1 inh	Beta cell apopt	T cruzi repl
CC1CC(C)CN(C(=O)Nc2ccccc2F)C1 (centres undefined)	8	9	-1.8	i	-1.2	0.67	-0.3	0.3	-2	-3
O=C(Cn1sc2ccccc2c1=O)N1CCN(C(=O)c2ccco2)CC1	-3	-2	-0.8	i	-4.2	0.69	-2.8	0.4	-4	-8
COc1ccc(Cc2nnc(SCC(=O)NC3CCCC3)o2)cc1	/	/	/	/	1.2	0.72	/	0.6	-4	-12
Cc1nn(-c2nc3ccccc3s2)c(N)c1Sc1ccc(F)cc1	/	/	/	/	2.4	0.73	/	-2.8	7	8
COc1cc(-c2ccccc2)nc2ccccc12	/	/	/	/	1.2	0.69	/	0.4	2	-20
O=C(N/N=C/c1cccc([N+](=O)[O-])c1)c1nc2ccccc2c(=O)[nH]1	11	6	-2.1	i	/	/	8.1	-0.9	-11	-4
COCc1cc(C)nc(SCc2ccccc2)c1C#N	-15	-22	-5.0	i	-4.5	0.7	-4.1	0.4	2	10
Cn1c(SCC(=O)Nc2sc3c(c2C#N)CCC3)nnc1C1COc2ccccc2O1 (centres undefined)	/	/	/	/	2.1	0.72	/	0.1	-3	0
CC1CCN(C(=O)c2ccccc2NS(=O)(=O)c2ccccc2)CC1	1	-1	2.8	i	4.4	0.67	-1.7	0.4	0	-13
CC1=NN(C(=O)c2ccc(Cn3nc(C)c([N+](=O)[O-])c3C)cc2)C(O)(C(F)(F)F)C1 (centres undefined)	/	/	/	/	3.8	0.67	/	0.3	4	0
Cc1ccc2[nH]c(=O)c(CN(CCCO)S(=O)(=O)c3c(C)ccc4nsnc34)cc2c1	13	-3	0.4	i	4.2	0.69	-4.8	-0.8	0	-5
Cc1ccc(C(=O)N2CCN(c3ccc(N4CCOCC4)nn3)CC2)cc1	2	7	-1.0	i	-234	0.67	7.3	0.1	/	-6
COCCN(CCOC)Cc1c(O)ccc2c1O/C(=C\c1ccc(C)o1)C2=O	21	15	1.4	i	-11	0.63	2.7	0.7	-2	-7
Cc1cc(CNC(=O)COc2c(F)c(F)cc(F)c2F)c2ccccc2n1	17	7	1.8	i	1.2	0.73	-2.0	1.1	6	-13
O=C(NC1CCCCC1)C1CC(=O)N(Cc2ccccc2)C1 (centres undefined)	7	7	0.1	i	3.2	0.69	-7.6	1.4	7	-18
N#Cc1ccc(Cl)cc1NC(=O)CNCc1cccs1	9	6	0.4	i	-1.4	0.61	0.5	0.5	0	-9
CC(=O)Nc1ccc(NC(=S)NC(=O)c2ccc(-c3ccccc3)cc2)cc1	-3	4	-0.5	/	4.4	0.67	3.8	-0.7	-1	-20
COc1ccccc1NC(=S)N/N=C/c1ccc(O)cc1	-33	-27	-3.4	+	/	/	10	-1.2	7	-10
O=C(C1CC(=O)N(C2CCCC2)C1)N1CCN(c2cccc(C(F)(F)F)c2)CC1 (centres undefined)	-11	-9	-2.4	i	4.9	0.69	0.2	/	/	/
COc1ccc(N(C(C)C(=O)N/N=C/c2ccc(OC(C)C)cc2)S(C)(=O)=O)cc1 (centres undefined)	1	-3	3.3	i	/	/	5.2	0.1	-6	-2
Cc1[nH]c2ccccc2c1C(=O)C(=O)N1CCOCC1	-1	0	-1.0	i	3.2	0.71	-1.2	-0.2	3	2
CCn1c(=O)c(C(=O)CN(C)CC(=O)Nc2cccc(F)c2)c(N)n(Cc2ccccc2)c1=O	-26	-62	18	i	3.4	0.67	3.2	0.6	-3	/
CC12C(=O)N(c3cccc(OC(=O)c4ccco4)c3)C(=O)C1C1c3ccccc3C2c2ccccc21 (centres undefined)	/	/	/	/	5.5	0.71	/	0.0	5	0
CC(Oc1ccc(Cl)cc1Cl)C(=O)NCCN1CCOCC1 (centres undefined)	3	-1	0.9	i	2.7	0.7	-7.2	-0.7	-6	1
CC(C)Oc1ccc(C(CC(=O)O)NC(=O)C2CCCCC2)cc1 (centres undefined)	/	/	/	/	6.1	0.68	/	-1.5	-2	-9
O=C(N/N=C/c1ccc(O)c(O)c1)c1cccc(S(=O)(=O)N2CCCC2)c1	7	11	1.8	i	/	/	2.0	0.9	3	-9
Cc1ccn(CC(=O)N2CCCC(C(=O)c3cccc4ccccc34)C2)n1 (centres undefined)	-4	-7	1.3	i	5.1	0.69	-0.5	0.5	/	6
CCOc1ccccc1NC(=O)c1ccc2c(c1)C(=O)N(CC1CCCO1)C2=O (centres undefined)	1	15	-1.7	i	-1.8	0.66	0.3	1.0	0	4
O=C(NC(=S)N1CCCCCC1)c1ccccc1	7	0	6.8	i	0.8	0.72	-11	0.3	-8	-55
Cc1nn(-c2ccccc2)c2[nH]c(=O)c(CNc3ccc4c(c3)OCCO4)cc12	/	/	/	/	5.9	0.69	/	-1.2	-1	12
COc1cccc(N2CC(=O)N(NC(=O)c3sc4nc(C)cc(C)c4c3N)CC2=O)c1	-2	-3	-5.4	i	-471	0.68	-2.2	0.8	-2	3
O=C(c1ccco1)N1CCN(CC(=O)N2CCCc3c2c(=O)oc2ccc(O)cc32)CC1	/	/	/	/	4.6	0.69	/	0.8	/	4
CCc1cc2ccc(OC)cc2nc1SCC(=O)N1CCN(C(=O)c2ccco2)CC1	-26*	-12*	-0.6*	i	-0.8	0.7	6.5	0.7	-1	22
N#C/C(=C\C1=C(N2CCOCC2)C(=C/c2cccc([N+](=O)[O-])c2)/CC1)C(=O)Nc1ccccc1F	/	/	/	i	9.9	0.75	-5.0	-0.2	3	/
CCOC(=O)c1ccccc1NC(=O)c1c(N)n(C)c(=O)[nH]c1=O	-2	1	-4.9	i	0.8	0.67	-4.4	-1.0	-4	-8
COc1ccc(CNS(=O)(=O)c2ccc(-n3cccn3)cc2)cc1	-8	-7	1.6	i	1.5	0.69	-2.3	-0.4	-4	-3
COc1ccccc1-c1ccc(=O)n(CC(=O)NCc2ccc3c(c2)OCO3)n1	2	-2	-2.2	/	4.6	0.7	/	-0.2	0	4
N#C/C(=C/c1ccc(CNC(=O)C(=O)Nc2cc(Cl)cc(Cl)c2)o1)C(=O)NCc1cccnc1	-23	-30	-18	i	-9.0	0.7	-2.0	1.1	9	-34
CN=C(C)/C(C(=O)OC)=C(/O)c1ccc(Cl)cc1Cl	0	3	0.6	i	3.8	0.7	-10	2.0	/	-8
COc1cc(CO)ccc1Oc1nnnn1-c1ccc(C(N)=O)cc1	9	0	-3.6	i	4.3	0.71	-17	1.9	-9	-13
Cc1cc(NC(=O)c2cnn3cccnc23)nn1CC(=O)Nc1cccnc1	1	0	-8.7	i	2.5	0.68	2.1	0.3	-3	-15
Cc1cc2c(OCC(O)CNCc3ccco3)cccc2[nH]1 (centres undefined)	4	-1	-3.7	i	2.2	0.67	12	0.3	-5	33
COc1ccc(OC)c(S(=O)(=O)N2CCN(c3ccccc3OC)CC2)c1	-10	-16	-3.0	i	-0.8	0.66	2.1	-0.5	-2	28
CCc1noc(C)c1C(=O)Nc1nc(-c2ccc(OC)c(OC)c2)cs1	-14	-12	0.9	i	4.5	0.69	3.2	0.2	5	16
COc1cc(C(=O)O/N=C2/C=C(C)C(=O)C=C2C)cc(OC)c1OC	7	7	1.8	i	/	/	0.1	0.0	-5	-36
COc1ccc(CCNC(=O)CSc2nnc(Cc3cccn3C)n2C)cc1OC	11	9	-0.1	i	-1.0	0.7	0.1	0.3	1	-2
Cc1cc(C)n2nc(C(=O)OCC(=O)N(C)CC(=O)Nc3ccc(F)cc3)nc2n1	9	7	-0.6	i	-0.4	0.7	0.7	1.5	3	/
